GIV Gai3 FP – inhibitors of GIV peptide binding to Galpha-i3, primary screen, biochemical, fluorescence polarization, FITC-GIV GBA peptide, rat Galphai3; Guanine nucleotide-binding protein G(i) subunit alpha-3 (Rattus norvegicus), P08753; 90 min; hits give low values; scaled: aluminum fluoride 0%, vehicle 100%; percent of control (FP), % (concentration not given with the values); hit rate 0.42% among 210,000; AID 1224905, 2016;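 active means replicate mean at 85% of control or lower, very high polarization wells dropped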;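 further: wells of about 15 µL received 100 nL stock; the first replicate is given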
Target sequence (P08753 whole entry, looked up): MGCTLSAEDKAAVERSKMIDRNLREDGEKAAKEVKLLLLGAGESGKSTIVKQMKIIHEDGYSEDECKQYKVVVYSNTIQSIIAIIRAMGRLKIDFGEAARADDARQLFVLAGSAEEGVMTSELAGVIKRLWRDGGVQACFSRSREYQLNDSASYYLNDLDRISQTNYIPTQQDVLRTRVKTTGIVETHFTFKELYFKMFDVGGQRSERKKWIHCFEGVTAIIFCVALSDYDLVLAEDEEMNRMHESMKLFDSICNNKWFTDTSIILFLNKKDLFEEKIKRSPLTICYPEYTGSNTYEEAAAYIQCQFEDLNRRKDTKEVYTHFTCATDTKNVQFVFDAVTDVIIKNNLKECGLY
* hit, by the source's call.

SMILES | GIV Gai3 FP
Cc1ccc(C)c(CNS(=O)(=O)c2cc(-c3csc(C)n3)sc2C)c1 | 110
Fc1ccc(-c2nc(-c3ccc4c(c3)sc3ccccc34)c(-c3ccccc3)[nH]2)cc1 | 109
O=C(c1ccc2ccnc(N3CCN(c4ccc(F)cc4)CC3)c2c1)N1CCN(c2ncccn2)CC1 | 109
O=C(NCCCn1ccnc1)c1ccc2c(=O)n(-c3ccc(F)c(Cl)c3)c(=S)[nH]c2c1 | 110
Nc1c(C(=O)Nc2ccc([N+](=O)[O-])cc2)sc2nc3c(c(-c4cccs4)c12)CCCC3 | 116
COc1ccccc1NC(=O)Cn1cnc2sc(C(=O)N3CCN(c4ccc(F)cc4)CC3)c(C)c2c1=O | 103
CCOc1ccc(-n2c(SCC(=O)NCCc3ccc(OC)c(OC)c3)nc3n[nH]c(C)c3c2=N)cc1 | 104
CCOC(=O)CSc1nc2c(c(=O)n1-c1ccccc1OC)SCC2 | 111
COc1ccccc1NC(=O)Cn1ncn2nc3c(c2c1=O)CCCC3 | 109
c1cnc2nc[nH]c2c1 | 96
CC1(C)C(=O)NCCN1C(=O)NCC1CCCO1 (centres undefined) | 92
Cn1c(SCC(=O)NC2CCCC2)nc2nc(N3CCCC3)sc2c1=O | 99
CCOC(=O)C1=C(O)/C(=C/c2ccc(OC)c(OC)c2)SC1=Nc1ccc(Cl)cc1 | 107
O=[N+]([O-])c1ccc(-c2nc(-c3ccccc3)c(-c3ccc(F)cc3)[nH]2)cc1 | 156
COC(=O)c1cc(-c2ccc(/C=C3\C(=O)N(c4ccc(S(N)(=O)=O)cc4)N=C3C(F)(F)F)o2)ccc1Cl | 109
COC(=O)c1c(N2C(N)=C(C#N)C(c3ccsc3)C3=C2CCCC3=O)sc2c1CCCC2 (centres undefined) | 107
O=C(Nc1ccc(C(F)(F)F)cc1)c1cc(S(=O)(=O)N2CCc3ccccc32)ccc1F | 106
CCCN(CCC)C(=O)CSc1nc2cc(C(=O)NCCOC)ccc2c(=O)n1Cc1ccco1 | 115
COC(=O)CSc1nn2c(=O)c(C)nnc2s1 | 105
CCOc1ccc(NC(=O)Nc2nccn(-c3ccc(Cl)cc3)c2=O)cc1 | 108
O=[N+]([O-])c1ccc2c(c1)[nH]c1nc3nc(-c4ccc(Br)cc4)cn3nc12 | 163
Cc1cccc(CC(=O)N2CCc3c(c(C(=O)N4CCCC(C(=O)Nc5ccccc5)C4)nn3C)C2)c1 (centres undefined) | 106
CCOc1ccc(NC(=O)CSc2nc3ccccc3n2S(=O)(=O)c2ccccc2)cc1 | 115
O=C(Nc1ccc2c(c1)OCCO2)N1CCC(n2cnc3cc(F)ccc3c2=O)CC1 | 107
COc1ccc2nc(SCC(=O)Nc3ccc(OC)c(OC)c3)[nH]c2c1 | 102
Cc1cccc(Nc2nc3nonc3nc2N/N=C/c2cc3c(cc2Br)OCO3)c1C | 103
O=C(CCc1nc(CS(=O)(=O)c2ccccc2)no1)NCCCN1CCCC1=O | 99
O=C(NCCc1ccccc1)c1ccc2c(c1)[nH]c(=S)n1c3ccccc3nc21 | 110
O=C(Nc1ccc2c(c1)OCCO2)N1CCN(Cc2cc(=O)n3nc(-c4ccccc4)sc3n2)CC1 | 103
O=C(NCCc1c[nH]c2ccccc12)c1cc(S(=O)(=O)N2CCCCC2)ccc1Cl | 101
Cc1ccc(Cl)cc1NC(=O)CCc1nc(CSc2nc3ccccc3o2)no1 | 107
COc1ccc2cc(C3=CC(c4ccc(Br)cc4)n4ncnc4N3)ccc2c1 (centres undefined) | 143
O=C(c1coc(C2CC2)n1)N1CCN(Cc2noc(-c3ccccc3)n2)CC1 | 100
CCCCCCCCNC(=O)c1c[nH]c2ccc(S(=O)(=O)N(C)c3ccc(Br)cc3)cc2c1=O | 105
COc1ccc(/C=C2\N=C(c3ccc(Cl)cc3)N(c3ccccc3Br)C2=O)cc1OC | 67*
CCOC(=O)c1sc(=S)n(CCc2ccccc2)c1N | 105
CCCCC(=O)Nc1ccc(S(=O)(=O)N2CCCCC2c2cccnc2)cc1 (centres undefined) | 100
CC1(C)CC(=O)C2=C(C1)N(c1ccc(S(N)(=O)=O)cc1)C(N)=C(C#N)C2c1ccsc1 (centres undefined) | 112
Cc1nc(SCC2=C(C(=O)OC(C)C)C(c3ccc(Cl)cc3)C(C#N)=C(N)O2)c(C#N)c(C)c1C (centres undefined) | 111
COc1ccc(C2=NC3(CCN(C)CC3)NC(c3cc(Br)ccc3O)C2)cc1 (centres undefined) | 104

Arranged by number of heavy atoms (rising): part of the list above.
SMILES | GIV Gai3 FP
CCOC(=O)c1sc(=S)n(CCc2ccccc2)c1N | 105
CCCCC(=O)Nc1ccc(S(=O)(=O)N2CCCCC2c2cccnc2)cc1 (centres undefined) | 100
Cc1ccc(Cl)cc1NC(=O)CCc1nc(CSc2nc3ccccc3o2)no1 | 107

Further records:
SMILES | GIV Gai3 FP
CCOC(=O)C1=C(C)N=c2s/c(=C\c3cc(OC)ccc3OC)c(=O)n2C1c1ccc(OC)c(OC)c1 (centres undefined) | 109
CCOC(=O)C1=C(N)Oc2ccc3ccccc3c2C1c1ccc(C)cc1 (centres undefined) | 107
CC(C)NC(=O)c1ccc2c(c1)[nH]c(=S)n1c3ccccc3nc21 | 104
Cc1nc(CN2C(=O)COc3ccc(S(=O)(=O)N4CCN(C)CC4)cc32)no1 | 108
Nc1nc(SCC(=O)Nc2ccc([N+](=O)[O-])cc2Cl)n[nH]1 | 98
Cc1cc(=O)oc2c3c(ccc12)O/C(=C\c1ccc(N(C)C)cc1)C3=O | 156
O=C(Nc1ccc(Br)cc1F)c1cc(S(=O)(=O)N2CCN(c3ccccc3)CC2)ccc1F | 108
O=C(Nc1ccc(Cl)c(Cl)c1)/C(=C/c1ccc2c(c1)OCO2)NC(=O)c1ccc(Br)cc1 | 106
CCC(C)C(=O)N1c2cc(C)ccc2-c2c(ssc2=S)C1(C)C (centres undefined) | 102
O=c1[nH]cnc2c1nc(SCc1cn3ccccc3n1)n2-c1ccccc1 | 108
COCCCNC(=O)CSc1nc2ccccc2c(=O)n1CC1CCC(C(=O)NCCc2ccccc2)CC1 (centres undefined) | 112
CCOc1ccc(C2Nc3ccc(CC)cc3[C@H]3OCCC[C@@H]23)cc1OCC (some centres undefined) | 102
O=C(NCCN1CCOCC1)c1cc2nc(-c3ccc(Cl)c(Cl)c3)cc(C(F)(F)F)n2n1 | 103
COC(=O)Cc1nc(N2CCN(c3ccc([N+](=O)[O-])cc3)CC2)c2c(C)c(C)sc2n1 | 103
O=C1C2C(c3ccccc3)OC3(C(=O)c4ccccc4C3=O)C2C(=O)N1c1ccccc1Cl (centres undefined) | 107
CSC1=NC(=Nc2cccc(C)c2)C2(CCCC2)N1c1ccccc1 | 110
Cc1cc(C)cc(N2C(=O)c3ccccc3C2C(=O)NCCC(C)C)c1 (centres undefined) | 112
O=C(Nc1nnc(CCCCc2nnc(NC(=O)c3ccco3)s2)s1)c1ccco1 | 108
O=C(NN1S(=O)(=O)c2ccccc2S1(=O)=O)C12CC3CC(CC(C3)C1)C2 | 107
O=C1c2ccccc2NC2(C(=O)N(Cc3ccccc3F)c3ccccc32)N1c1ccccc1 (centres undefined) | 104

Looked up by compound from above:
SMILES | GIV Gai3 FP
O=C1C2C(c3ccccc3)OC3(C(=O)c4ccccc4C3=O)C2C(=O)N1c1ccccc1Cl (centres undefined) | 107
COC(=O)Cc1nc(N2CCN(c3ccc([N+](=O)[O-])cc3)CC2)c2c(C)c(C)sc2n1 | 103
CSC1=NC(=Nc2cccc(C)c2)C2(CCCC2)N1c1ccccc1 | 110
COCCCNC(=O)CSc1nc2ccccc2c(=O)n1CC1CCC(C(=O)NCCc2ccccc2)CC1 (centres undefined) | 112
Cc1cc(C)cc(N2C(=O)c3ccccc3C2C(=O)NCCC(C)C)c1 (centres undefined) | 112
O=C1c2ccccc2NC2(C(=O)N(Cc3ccccc3F)c3ccccc32)N1c1ccccc1 (centres undefined) | 104

The list continues:
SMILES | GIV Gai3 FP
CCS(=O)(=O)Nc1ccc(Nc2nc(C)cc(N(C)C)n2)cc1 | 104
CC(C)CCNC(=O)C1CCN(C(=O)c2cccc(NS(=O)(=O)c3ccc(C(C)C)cc3)c2)CC1 | 104
c1ccc(-c2nc3ccccc3nc2-c2ccc(-c3nc4ccccc4nc3-c3ccccc3)cc2)cc1 | 115
CC1(C)C(N(O)C(=O)NC2CCCCC2)N(C2CCCCC2)C(=O)N1CCC1=CCCCC1 (centres undefined) | 112
O=S(=O)(NCc1nc2cccnc2n1C1CC1)c1ccccc1 | 99
Cc1csc(-c2cc(S(=O)(=O)NCCc3cccs3)c(C)n2C)n1 | 104
O=C(CNC1CCCCC1)N1c2ccccc2Sc2ccc(Cl)cc21 | 108
O=C1c2[nH]nc(-c3ccccc3)c2C(c2cccc([N+](=O)[O-])c2)N1c1ccccc1 (centres undefined) | 106
CCOc1ccc(OC(=O)c2cc3c(C)nn(-c4ccc(F)cc4)c3s2)cc1 | 109
CC(C)CN1CCN(Cc2nc(-c3ccc(N4CCSCC4)nc3)no2)CC1 | 127

Entries listed so far that have a cyano group (3):
SMILES | GIV Gai3 FP
COC(=O)c1c(N2C(N)=C(C#N)C(c3ccsc3)C3=C2CCCC3=O)sc2c1CCCC2 (centres undefined) | 107
CC1(C)CC(=O)C2=C(C1)N(c1ccc(S(N)(=O)=O)cc1)C(N)=C(C#N)C2c1ccsc1 (centres undefined) | 112
Cc1nc(SCC2=C(C(=O)OC(C)C)C(c3ccc(Cl)cc3)C(C#N)=C(N)O2)c(C#N)c(C)c1C (centres undefined) | 111

(listing goes on)
SMILES | GIV Gai3 FP
CCOc1ccc(N/C(SCc2ccccc2C)=C(/C#N)C(=O)NCc2ccc3c(c2)OCO3)cc1 | 112
N#Cc1c(NC(=O)CCCN2C(=O)c3ccccc3C2=O)oc(-c2ccccc2)c1-c1ccccc1 | 111
CCOC(=O)C1=C(C)N=c2s/c(=C\c3ccc(OC)c(O)c3)c(=O)n2C1c1ccc(OC(C)C)cc1 (centres undefined) | 115
O=C(NCc1cccc(Br)c1)C1CCCN(C(=O)C2Sc3ccccc3NC2=O)C1 (centres undefined) | 106
COc1ccc(-c2[nH]nc3c2C(c2cn[nH]c2-c2ccc(F)cc2)C(C#N)=C(N)O3)cc1OC (centres undefined) | 114
O=C(COc1ccc(Cl)cc1)Nc1sc2c(c1C(=O)Nc1cccc3ccccc13)CCC2 | 112
CC(=O)Nc1nc(-c2ccccc2)nc2c1c(=O)oc1ccccc12 | 104
CCOC(=O)c1c(NC(=O)c2ccc([N+](=O)[O-])cc2)sc2c1CCN(C(=O)OCC)C2 | 103
Cc1nc(-c2ccc(F)cc2)sc1-c1ccc(SCc2ccccn2)nn1 | 104
CC1=NN(c2cccc(C(=O)O)c2)C(=O)/C1=C\c1cccn1-c1ccc(S(N)(=O)=O)cc1 | 102
CCCCNC(=O)CSc1nc(NCC2CCCO2)c2ccccc2n1 (centres undefined) | 108
CCCOC(=O)c1ccc(NC(=O)c2c(O)c3cccc4c3n(c2=O)CCC4)cc1 | 118
COc1ccc(NC(=O)c2cn(-c3cc(-c4noc(C)n4)ccc3C)nc2C)cc1OC | 103
COc1cccc(NC(=O)CSc2nc(NCC3CCCO3)c3ccccc3n2)c1 (centres undefined) | 116
O=C(Nc1ccc2c(c1)CCC2)c1cc2c(s1)CN(C1CC1)C2 | 103
CC(C)NC(=O)CN1CCN(C(=O)c2sc3ncccc3c2-n2cccc2)CC1 | 108
COc1ccc(-c2cc3cc(OC)c(OC)cc3c(Cc3cccc4ccccc34)n2)cc1C | 111
COc1ccccc1N1CCN(S(=O)(=O)c2ccc(F)c(C(=O)Nc3ccc(Cl)cc3F)c2)CC1 | 106
CCc1ccccc1N=CC12c3ccccc3C(c3ccccc31)C1C(=O)N(c3ccccc3[N+](=O)[O-])C(=O)C12 (centres undefined) | 101
COc1cc(C2C(N3C(=O)c4ccccc4C3=O)C(=O)N2c2cc(Cl)ccc2C)cc(OC)c1OC (centres undefined) | 106

Marked active in GIV Gai3 FP, of those listed so far:
SMILES | GIV Gai3 FP
COc1ccc(/C=C2\N=C(c3ccc(Cl)cc3)N(c3ccccc3Br)C2=O)cc1OC | 67*

The listing continues:
SMILES | GIV Gai3 FP
O=C(CCCn1c(=S)[nH]c2ccc(Br)cc2c1=O)NC1CCCCCC1 | 103
CCCC(=O)C1=C(c2ccc(Br)cc2)N(C(=O)CCC)n2c(C)nnc2S1 | 105
Cc1nc2cc(-c3noc(-c4ccc5c(c4)OCO5)n3)ccc2o1 | 99
CCOc1ccc(C2CC(=O)Nc3c2c(C)nn3-c2ccc3nnc(C)n3n2)cc1OC (centres undefined) | 98
CC(Nc1ncnc2c1CCC2)c1ccccn1 (centres undefined) | 105
CSc1sc(C)cc1C1C(C(=O)Nc2cccc(C(F)(F)F)c2)=C(C)NC2=C1C(=O)CCC2 (centres undefined) | 106
O=C(NCc1ccco1)N1C[C@@H]2C[C@H](NS(=O)(=O)c3cccs3)[C@H]1C2 | 106
CCCn1c(=O)c(N2CCC(NC(=O)Nc3ccc(C)cc3)CC2)nc2ccccc21 | 105
COC(=O)C(Cc1c[nH]c2ccccc12)NC(=O)c1cc2c(n(-c3ccc(OC)cc3)c1=O)CC(C)(C)CC2=O (centres undefined) | 105
COc1ccc(Cl)cc1NC(=O)CSc1nc2ccccc2n1S(=O)(=O)c1ccc(NC(C)=O)cc1 | 105
CCOCCCNC(=O)NC1CCN(c2nc3cccnc3n(CC)c2=O)CC1 | 96
CCCc1oc2c(cc(NS(=O)(=O)c3cc(C)ccc3C)c3ccccc32)c1C(=O)OCC | 106
CCC(SC1=NS(=O)(=O)c2cc(F)ccc2N1)C(=O)OC (centres undefined) | 103
COc1ccc(-c2cncc(C(=O)NCc3ccc(OC)cc3OC)c2)cc1 | 98
Fc1ccc(N2CCN(c3ccc(F)cc3)C2c2ccc(Br)cc2)cc1 | 106
COc1ccc(OCC(=O)N2CCOc3ccc(CN(Cc4ccc(F)cc4)C(C)=O)cc3C2)cc1 | 101

Assay outcomes as filed in PubChem BioAssay.

A portion of the library; count on the stated rates, not on these rows.
